Assay outcomes (PubChem BioAssay)
Autofluor counter: compound fluorescence in toxin protease inhibitor counterscreen. compound autofluorescence counterscreen, microsphere flow cytometry; hits give high values. fluorescence intensity (no concentration beside the values). AID 624483. actives 3.1% (n = 360,000);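 active = at least 3 SD above the mean of all compounds, about 16000 in these data; inconclusive = too few beads counted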;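 note: 100 nL of 1 mM stock went into each well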
PrP 5UTR inh: inhibition of PrP 5' UTR reporter expression; cell-based PrP 5' UTR mRNA reporter, plate reader; inhibition, % (concentration not given with the values); actives 0.35% (n = 340,000);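 active = every replicate at 50% or more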;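 note: 0 = median of the neutral control wells; tested in H4 reporter cells; numbers are from one replicate; inactives centre near -14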
Sa RN4220 lethal: kills Staphylococcus aureus RN4220; AID 1259311; inhibition, % (test concentration not listed); S. aureus RN4220 growth, OD600, 16 h; actives 0.33% (n = 330,000);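 active = z-score of -3 or lower and OD600 up to 0.18 on both plates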;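 note: plate controls were untreated cells for no effect and reference antibiotic for full effect; stock transfer was 100 nL into about 80 µL; one replicate is shown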
Mtb hypoxia inh: reduces hypoxia-regulated biosensor signal in M. tuberculosis | M. tuberculosis hypoxia-regulated fluorescent reporter, fluorescence | fluorescence inhibition, % (test concentration not listed) | actives 0.1% (n = 300,000);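 active = 35 to 45% if threefold the growth effect, above 45% if 1.5-fold the growth effect; inactive = the rest, general growth blockers included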;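 note: wells of about 50 µL received 100 nL stock; 0% = vehicle wells and 100% = reference inhibitor wells; whole bacteria with a GFP reporter of the hypoxia response; strong numbers were not always called active; many hits fall short of the cut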
ugtP null kill: kills S. aureus RN4220 lacking UgtP | S. aureus RN4220 ugtP deletion, OD600 growth, 16 h; some inactives read as strong as hits | growth inhibition, % (concentration not given with the values) | actives 0.54% (n = 330,000);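 active = z-score under -3 and OD600 up to 0.15 on both plates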;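 note: plate controls were untreated wells for no effect and antibiotic for full effect; wells of about 80 µL received 100 nL stock; the first replicate is given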
BJeLR viability: BJeLR cell viability loss; BJeLR (HRASV12) viability, CellTiter-Glo ATP luminescence, 48 h; reference of the scale not given here; inhibition, % (no concentration beside the values); actives 0.17% (n = 300,000);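 active = replicate mean above 50%; inconclusive = above 50% but judged a plate artefact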;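 note: 50 nL library stock added to about 25 µL; numbers are from one replicate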
Mtb hypoxia inh growth: also measured in Mtb hypoxia inh; calls as there; growth inhibition, %; measured here: M. tuberculosis growth (absorbance);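 0% = vehicle and 100% = reference antibiotic; read after six days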
Starred values were filed as active, the others as inactive; ? = inconclusive; nt = not tested or not shown.

SMILES	Autofluor counter	PrP 5UTR inh	Sa RN4220 lethal	Mtb hypoxia inh	Mtb hypoxia inh growth	ugtP null kill	BJeLR viability
O=c1oc2ccccc2c(NCc2ccc(Cl)cc2)c1[N+](=O)[O-]	5806	-14	2.9	2	-9	11	-1
COc1cc2oc(=O)cc(-c3ccc(-c4ccc(N(C)C)cc4)cc3)c2c(OC)c1OC	3760	-17	1.4	-2	-4	12	nt
Cc1ncc(CN2CCC(C(=O)Nc3ccc(-n4cccn4)cc3)CC2)s1	6349	-20	3.0	7	6	3	-4
COc1ccc(OCc2cc(C(=O)N3CCOCC3)no2)c(Cl)c1	5461	-42	3.5	3	0	5	-8
O=C(CCN1C(=O)C2C3C=CC(C3)C2C1=O)NC1CCCCC1 (configuration not stated)	4165	-1	nt	nt	nt	nt	1
Cc1c(N=Cc2nc3ccccc3[nH]2)c(=O)n(-c2ccccc2)n1C	2641	-34	-0.2	3	7	2	5
COc1ccc(S(=O)(=O)Nc2c(C)nc3nc[nH]n3c2=O)cc1	3706	-2	-0.3	9	2	1	9
CCCC(C(=O)NCCc1ccc(S(N)(=O)=O)cc1)c1ccccc1 (configuration not stated)	3783	1	5.2	2	-2	-1	6
CCn1c2ccccc2c2cc(NC(=O)C(C)Oc3ccccc3)ccc21 (configuration not stated)	5121	-12	7.3	2	2	16	4
CCc1ccc(C(=O)N2CCN(c3ccc(NC(=O)c4ccco4)cc3)CC2)cc1	6746	-2	-0.2	4	-5	4	-10

Compound profiles (already shown). Screens in order: Autofluor counter	PrP 5UTR inh	Sa RN4220 lethal	Mtb hypoxia inh	Mtb hypoxia inh growth	ugtP null kill	BJeLR viability
`CCn1c2ccccc2c2cc(NC(=O)C(C)Oc3ccccc3)ccc21` (configuration not stated) in the list: 5121	-12	7.3	2	2	16	4
`O=C(CCN1C(=O)C2C3C=CC(C3)C2C1=O)NC1CCCCC1` (configuration not stated) in the list: 4165	-1	nt	nt	nt	nt	1
`COc1ccc(OCc2cc(C(=O)N3CCOCC3)no2)c(Cl)c1` in the list: 5461	-42	3.5	3	0	5	-8
`Cc1ncc(CN2CCC(C(=O)Nc3ccc(-n4cccn4)cc3)CC2)s1` in the list: 6349	-20	3.0	7	6	3	-4
`COc1ccc(S(=O)(=O)Nc2c(C)nc3nc[nH]n3c2=O)cc1` in the list: 3706	-2	-0.3	9	2	1	9

More results follow.
SMILES	Autofluor counter	PrP 5UTR inh	Sa RN4220 lethal	Mtb hypoxia inh	Mtb hypoxia inh growth	ugtP null kill	BJeLR viability
COc1ccc(OC)c(CNC(=O)Cn2nc(C)c3c(C)n(-c4ccc(C)cc4)nc3c2=O)c1	4648	-4	1.9	9	-3	1	1
CCCC[C@@H]1CNC(=O)C(=O)N1CCc1cc(C(F)(F)F)cc(C(F)(F)F)c1	4179	-16	nt	nt	nt	nt	1
Cc1nc2c(C#N)c[nH]n2c(=O)c1Cc1ccccc1	7242	-29	-1.7	-8	-8	-5	-3
CN1CCN(S(=O)(=O)c2ccc(Cl)nc2)CC1	2479	-57	-1.8	-3	4	7	-6
CC(Oc1ccc(Br)cc1)C(=O)NCCCN1CCCC1=O (configuration not stated)	5391	-22	0.2	-1	6	-1	nt
Cc1csc(NC(=O)C2CCCCC2)n1	3563	-21	0.5	6	-1	3	4
O=C(O)Cc1ccc2oc(-c3cccnc3)nc2c1	4294	-15	4.3	4	-3	-3	13
Cc1sc2nc(SCC(=O)O)[nH]c(=O)c2c1C	4291	12	0.7	-6	1	2	-2
C=CCOc1cccc(C(=O)Nc2ncn[nH]2)c1	3686	-18	2.7	8	2	2	-1
CCCc1cc(=O)[nH]c(SCCN2C(=O)c3ccccc3C2=O)n1	4492	-14	4.4	12	5	0	1
CC(C)NC(=O)c1onc(CSc2ccc(C(C)C)cc2)c1C(=O)O	3965	-14	21	1	6	14	-13
COc1ccc(Br)cc1S(=O)(=O)N1CCCc2ccccc21	3706	-18	2.8	14	8	25	8
COc1ccccc1-n1nc(C(=O)O)c2ccccc2c1=O	6414	-23	4.2	-3	6	11	-4
CCOC(=O)CNc1c(N2CCN(c3ccccn3)CC2)c(=O)c1=O	5348	-14	1.1	-1	-2	3	-1
CCOc1cc(NC(=S)NCCOC)c(OCC)cc1NC(=O)c1cccs1	nt	nt	27	16	-2	22	7
Cc1nc(CN2CCN(C(=O)CCc3nnc(Cc4c[nH]c5ccccc45)o3)CC2)cs1	2553	-14	-4.4	-9	3	-6	14
C=CCn1c(C)csc1=Nc1ccc(C(C)=O)cc1	4678	-42	5.9	6	13	3	-5
N#Cc1cc2c(nc1SCC(O)CS(=O)(=O)Cc1ccc(Cl)cc1)CCCC2 (configuration not stated)	11082	-31	4.1	16	13	23	-1
COc1ccc(CNc2c(C(=O)O)cnc3c2cnn3C)cc1	2033	0	9.6	8	9	2	-4
Cc1c(C(=O)Nc2cccc([N+](=O)[O-])c2)csc1-c1ccccc1	16284*	-57	-1.1	0	9	-16	16
COc1ccc(C(=O)Nc2ccnn2C2CCN(Cc3ccccn3)CC2)cc1	5321	-5	3.5	5	-2	17	4
CCc1ccc(N=C2NC(=O)/C(=C/c3cc(Br)c(OCC(=O)O)c(OC)c3)S2)cc1	3964	-20	nt	nt	nt	nt	-5
CC1CCN(C(=O)CSc2nc3c(c(=O)n2C)SCC3)CC1	5724	-11	7.0	3	1	2	-7
Cc1nn(-c2ccccc2)c2ncc(C(=O)c3cc(Cl)ccc3O)cc12	2513	-16	8.1	4	0	14	4
COc1c(C)cc(Br)cc1C(=O)NC(=S)NCc1ccco1	6059	-7	9.7	-4	-2	2	-3
CCOC(CNC(=O)c1cc(C)nn1-c1ccccc1)OCC	10226	-24	3.4	1	7	-1	1
O=C(Nc1ccc(F)cc1)Nc1ccc2c(c1)OCO2	5802	-90	3.3	9	9	-5	-1
Cc1ccc(S(=O)(=O)Nc2ccc(C(=O)N3CCOCC3)cc2)cc1	3783	-10	0.3	12	-5	9	-4
O=C(Nc1cccc(-c2nnc(-c3ccccc3)o2)c1)C1CCCCC1	4481	-4	2.7	nt	nt	-11	-2
COC(=O)C1=C(C(=O)OC)C2Nc3ccccc3[C@@]23CC(C(=O)OC)N(C(=O)c2ccco2)C3=N1 (some centres not stated)	nt	nt	3.8	7	9	5	nt
O=C(CSc1ncn[nH]1)N1N=C2/C(=C/c3ccccc3)CCCC2C1c1ccccc1 (configuration not stated)	2349	-9	-0.6	-1	5	-11	0
CN(C)S(=O)(=O)c1ccc(NC(=O)c2ccncc2)cc1	3339	-21	2.0	8	-1	7	5
COc1ccc(F)cc1S(=O)(=O)NC(Cc1ccccc1)C(N)=O (configuration not stated)	4941	-29	1.9	nt	nt	10	3
COc1ccccc1NC(=O)c1csc2c1CCC(C)C2 (configuration not stated)	4196	-55	4.7	5	8	2	1
CC(C)(C)OC(=O)C[C@@H]1C/C=C\C[C@@H](CC(=O)NCCO)C(=O)NC[C@H](c2ccccc2)OC1=O	2824	-14	-7.7	4	-3	3	nt
Cc1ccc(S(=O)(=O)N(CCC(=O)O)c2ccccc2)cc1	2146	-1	2.5	1	5	-4	-23
Cc1sc(NC(=O)c2cc(-c3ccccc3)nc3ccccc23)c(C(N)=O)c1C	2108	-6	24	-8	-2	-4	-14
O=c1[nH]c(CN2CCc3ccccc3C2)nc2ccccc12	4535	-17	5.3	12	8	-2	-6
CCOC(=O)c1c(C)n(C)c2cc(Br)c(C(=O)OC)cc12	2727	7	-0.6	nt	nt	2	-4
COc1ccc(/C=C(\C#N)C(=O)c2c(C)[nH]c3ccccc23)cc1OC	2443	5	3.4	-5	4	-3	5
O=C(NNC1=C(C(=O)C(F)(F)F)CCC1)c1cccc(O)c1	3551	-9	6.3	nt	nt	25	5
CC(Oc1ccc(Cl)cc1Cl)C(=O)NCCCN(C)C (configuration not stated)	8306	-8	4.8	17	8	5	10
CN(c1ccccc1)S(=O)(=O)CS(=O)(=O)N(C)c1ccccc1	3027	-21	4.9	13	9	2	nt
Cc1c(NC(=O)COC(=O)c2ccc(Br)o2)c(=O)n(-c2ccccc2)n1C	4587	-2	9.3	8	6	7	3
CCOc1ccc(NC(=O)COC(=O)C2C3CC4OC(=O)C2C4C3)cc1 (configuration not stated)	5344	-5	3.6	-1	4	10	4
CCOC(=O)c1sc(NC(=O)c2ccc(S(=O)(=O)N(CC)CC)cc2)nc1C	6066	-24	3.7	13	3	11	-14
COC(=O)C1CCN(S(=O)(=O)c2ccc(NC(C)=O)cc2)CC1	4123	-19	-0.5	3	6	-4	-2
CC1CN=C(N(C)C)N1CCc1ccc(F)cc1 (configuration not stated)	nt	nt	3.8	9	17	1	nt
Cc1ccc(Nc2nnc(SCc3nc4ccccc4c(=O)[nH]3)s2)cc1	3909	-16	11	8	-2	-2	8
CC(=NNC(=O)CNC(=O)c1cccc(F)c1)c1ccc2c(c1)CCCC2	nt	nt	3.0	6	11	3	nt
(listing goes on)
SMILES	Autofluor counter	PrP 5UTR inh	Sa RN4220 lethal	Mtb hypoxia inh	Mtb hypoxia inh growth	ugtP null kill	BJeLR viability
Cc1c(N)cc(S(=O)(=O)O)cc1NC(=O)c1cccc([N+](=O)[O-])c1	3154	-18	3.6	3	0	5	nt
CCOc1ccc(C(=O)Nc2ccccc2N2CCN(C(=O)c3ccccc3)CC2)cc1[N+](=O)[O-]	4240	2	-0.5	4	6	-17	-9
O=C(NC1c2ccccc2-c2ccccc21)N1CCOCC1	7759	-24	3.3	0	3	0	3
Cc1ccc(CNC(=O)COc2cccc3c2OC(C)(C)C3)cc1	5650	-7	3.3	0	9	3	nt
O=C(CCCCC(=O)N1CCOCCOCCOCC1)OCc1ccccc1	?	-9	5.6	-2	-2	6	3
CCOC(=O)CNC(=O)C1CCN(S(=O)(=O)c2ccc(-c3nn[nH]n3)cc2)CC1	3481	1	-0.2	-5	7	-3	4
CC(C)COc1ccc(C/C(N)=N/n2cnnc2)cc1	2212	4	-3.4	-8	-11	-4	18
O=C(OCC(=O)N(CCc1ccccc1)Cc1ccccc1)c1cccc(O)c1	6004	-14	0.4	9	-5	12	5
CC(=O)Nc1c(C)nn(C(C)=O)c1C	2477	4	5.5	-6	1	6	6
CC1(C)NC(C(=O)O)Cc2c1[nH]c1ccccc21 (configuration not stated)	5474	-1	7.0	6	7	9	-2
Fc1ccc(C2c3[nH]c4ccccc4c3CCN2CCCn2cccn2)cc1 (configuration not stated)	4734	-15	0.5	6	-5	5	10
COc1cc(C(=O)Nc2ccccc2N2CCN(S(C)(=O)=O)CC2)cc(OC)c1OC	2179	-32	0.0	nt	nt	1	-4
CC1CCCN(c2ccc([N+](=O)[O-])s2)C1 (configuration not stated)	2338	-19	3.3	nt	nt	2	-2
COc1cc(C=NNc2ccccc2)ccc1OC(=O)c1cccs1	nt	nt	5.1	6	0	-3	nt
CCCCN(C(=O)c1cnc2n(c1=O)CCS2)c1ccccc1	6081	-18	12	5	-1	19	-3
Cc1cccc(-c2c3c(=O)n(C)c(=O)n(C)c3cn2C(C)(C)C)c1	10676	-6	-1.2	-4	6	0	-16
CNC(=O)CCc1[nH]c2ccccc2c1Sc1ccccc1	2501	-12	5.6	4	-4	-2	-8
COc1ccc(C(=O)NCc2nnc(SCC(=O)N3CCCCC3)o2)cc1	2593	-11	4.3	2	4	-4	0
NNC(=S)NCc1cccnc1	2604	-9	5.0	2	11	10	2
Cc1ccc(NC(=S)N2CCC(C(=O)c3ccc(F)cc3)CC2)cc1C	3748	-13	-0.9	13	3	4	nt
O=c1cc(O)nc2n1CCCS2	5046	5	0.4	nt	nt	-1	3
NC(=O)c1cccc2c1C(=O)N(C1CCCCC1)C2	4206	-2	-8.6	8	7	-5	1
CCc1nnc(NC(=O)Nc2ccc(OC)cc2)s1	4125	-42	3.0	nt	nt	-3	-1
Cc1csc(NC(=O)c2ccncc2)n1	3905	-61	1.7	4	14	11	4
O=C(NNC(=O)C1CCCC1)c1ccc(F)cc1	5218	-15	4.9	-8	7	11	-11
O=C(NC1CCCC1)C(c1ccc(N2CCOCC2)cc1)N(C(=O)c1ccco1)c1ccccc1F (configuration not stated)	2682	-21	3.8	3	11	-1	4
COc1cc(CN(C2CC2)S(=O)(=O)c2ccccc2Br)cc(OC)c1	3111	-2	0.6	-4	-2	-1	nt
